From PubChem BioAssay
Mtb hypoxia inh: inhibitors of hypoxia-regulated fluorescent reporter in Mycobacterium tuberculosis; M. tuberculosis hypoxia-regulated fluorescent reporter, fluorescence; hit rate 0.1% among 300,000; fluorescence inhibition, % (concentration not given with the values); AID 1159583;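 active means 35 to 45% if threefold the growth effect, above 45% if 1.5-fold the growth effect; inactive means the rest, general growth blockers included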;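 further: wells of about 50 µL received 100 nL stock; 0% = vehicle wells and 100% = reference inhibitor wells; whole bacteria with a GFP reporter of the hypoxia response; strong numbers were not always called active; many hits fall short of the cut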
RN4220 kill: kills Staphylococcus aureus RN4220; S. aureus RN4220 growth, OD600, 16 h; inhibition, % (test concentration not listed); hit rate 0.33% among 330,000; AID 1259311;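 active means z-score of -3 or lower and OD600 up to 0.18 on both plates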;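 further: plate controls were untreated cells for no effect and reference antibiotic for full effect; stock transfer was 100 nL into about 80 µL; one replicate is shown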
PrP 5UTR inh: inhibition of PrP 5' UTR reporter expression; hit rate 0.35% among 340,000; cell-based PrP 5' UTR mRNA reporter, plate reader; AID 488862; inhibition, % (concentration not given with the values);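 active means every replicate at 50% or more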;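 further: 0 = median of the neutral control wells; tested in H4 reporter cells; numbers are from one replicate; inactives centre near -14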
Sa ugtP lethal: growth inhibition of S. aureus ugtP deletion strain. S. aureus RN4220 ugtP deletion, OD600 growth, 16 h; some inactives read as strong as hits. growth inhibition, % (no concentration beside the values). hit rate 0.54% among 330,000;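 active means z-score under -3 and OD600 up to 0.15 on both plates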;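 further: plate controls were untreated wells for no effect and antibiotic for full effect; wells of about 80 µL received 100 nL stock; the first replicate is given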
BJeLR viability: kills HRASV12-expressing BJeLR cells; BJeLR (HRASV12) viability, CellTiter-Glo ATP luminescence, 48 h; reference of the scale not given here; inhibition, % (test concentration not listed); hit rate 0.17% among 300,000;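 active means replicate mean above 50%; inconclusive means above 50% but judged a plate artefact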;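 further: 50 nL library stock added to about 25 µL; numbers are from one replicate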
Bead autofluor: flagged as autofluorescent in microsphere protease counterscreen; compound autofluorescence counterscreen, microsphere flow cytometry; active compounds read high; fluorescence intensity (no concentration beside the values); hit rate 3.1% among 360,000;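 active means at least 3 SD above the mean of all compounds, about 16000 in these data; inconclusive means too few beads counted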;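 further: 100 nL of 1 mM stock went into each well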
Mtb hypoxia inh growth: recorded beside Mtb hypoxia inh, whose call it bears; growth inhibition, %; measured here: M. tuberculosis growth (absorbance);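 0% = vehicle and 100% = reference antibiotic; read after six days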
* hit, by the source's call; ? = inconclusive; nt = not tested or not shown.

SMILES	Mtb hypoxia inh growth	Sa ugtP lethal	Mtb hypoxia inh	PrP 5UTR inh	BJeLR viability	Bead autofluor	RN4220 kill
CCOc1ccc(S(=O)(=O)N2CCN(Cc3ccccc3)CC2)c2cccnc12	nt	-4	nt	-1	1	3709	-5.5
O=C(C1=C(O)C(=O)N(CCN2CCOCC2)C1c1cccc(Br)c1)c1cc2ccccc2o1 (configuration not stated)	-2	5	-8	-15	-6	5688	11
Cn1c(CCC(=O)Nc2ccc(N3CCOCC3)cc2)nc(=O)c2ccccc21	-1	1	-6	-29	3	4162	2.5
O=C(COC(=O)CNC(=O)c1cccs1)Nc1ccccc1C(F)(F)F	7	5	17	-10	4	3158	3.7
COc1cc(NC2c3ccccc3C(=O)N2c2ccc(C)cn2)cc(OC)c1OC (configuration not stated)	4	2	1	-21	0	6256	4.8
COc1ccc(CC(=O)Nc2cc(C)on2)cc1	23	0	13	-7	0	3521	2.0
CCCSc1nc(C)cc(C)c1C(N)=O	-5	3	3	-27	3	4194	4.0
COc1ccc(C=NN2CCOCC2)cc1O	3	-1	1	nt	nt	nt	2.9
Cc1cccc(C)c1Nc1nnc(SCC(=O)Nc2ncc(C(F)(F)F)cc2Cl)s1	2	-7	9	-9	-4	6508	5.3
COc1ccc(C(=O)N/N=C\c2ccoc2)cc1	nt	nt	nt	-16	6	5596	nt
CN1CCc2c(sc3nc(NCCO)n(-c4cccc(Cl)c4)c(=O)c23)C1	-2	3	1	-7	1	6013	1.4
Cc1ccc(NC(=O)CCNS(=O)(=O)c2cccs2)cc1F	4	15	6	-48	15	3391	0.2
C[C@@H]1CN([C@H](C)CO)C(=O)c2cc(NC(=O)C3CCCCC3)ccc2O[C@@H]1CN(C)Cc1ccc(C(F)(F)F)cc1	-7	-11	-5	4	nt	3860	-13
CCOC(=O)N1CCN(CC(=O)N2c3ccccc3CCc3ccccc32)CC1	-6	11	1	-31	-2	4598	2.8
COc1ccc(C(=O)CCN2CCCCCC2)cc1	12	4	4	-20	-10	11383	1.9
CN(C)S(=O)(=O)c1ccc(NC(=O)CCNC(=O)c2ccco2)cc1	0	11	0	-7	-6	3484	0.9
CCCOc1ccc(NC=CC(=O)C(C)(C)C)cc1	6	0	10	nt	nt	nt	7.6
CN(C)C(CNC(=O)C1CCN(S(=O)(=O)c2cccc(C(F)(F)F)c2)CC1)c1ccccc1 (configuration not stated)	-4	14	2	-18	-5	4731	4.6
Cc1cccc(Cn2nc(C(C)(C)C)cc2C(=O)N2CCOCC2)c1	-3	8	3	-15	-1	3791	3.5
CC(=O)c1c(O)n(-c2cccc(Cl)c2)c(=O)[nH]c1=O (tested in a mixture with another compound)	-3	-1	-6	-14	0	6222	0.6
COc1ccc(C(=O)CSc2nnc3ccccn23)cc1OC	6	3	4	10	4	3974	3.4
CC(C)NCC(O)COc1c(F)cc(Br)cc1F (configuration not stated)	nt	1	nt	-10	-6	2704	1.7
Cc1c(Cl)cccc1NC(=O)CNC(=O)c1ccc2c(c1)OCCO2	29	9	19	-12	nt	3131	3.4
c1ccc2c(c1)CC1(CCCCC1)n1nnnc1-2	-2	0	-6	0	-6	12387	-0.5
O=C(NC12CC3CC(CC(C3)C1)C2)C1=COCCO1	29	-9	24	-16	-8	3329	-3.1
O=C(c1cc(F)c(F)cc1Cl)N1CCN(c2ccc([N+](=O)[O-])c3ncccc23)CC1	5	6	10	-23	-2	2159	5.0
CCON=C(C)c1c(O)cc(C(C)(C)C)n(-c2ccccc2)c1=O	2	8	13	nt	nt	nt	5.3
CCCCOc1ccc(N(CC(=O)NC(C)C)C(=O)CCC(=O)Nc2ccccn2)cc1	5	-4	2	-20	-5	5763	8.3
CCc1nnc(NC(=O)CCC(=O)N2CCN(c3ccccn3)CC2)s1	-1	5	1	-21	-5	9174	3.0
O=C(NN=C1CCCCC1)c1cc(-c2ccccc2)n[nH]1	7	7	18	-18	11	2468	4.4
O=C(Cc1ccc(Cl)cc1)NCC(=O)N1CCN(Cc2ccccc2)CC1	3	8	0	-25	-4	5887	-4.6
CCOC(=O)c1c(NS(=O)(=O)c2cccc(OC)c2)sc2c1CCC2	6	-11	7	-11	0	11079	27
Cc1ccc(S(=O)(=O)N2CCN(C(=O)CC(C)(C)C)CC2)cc1	5	9	2	-32	4	2584	4.7
COC(=O)C1=C(c2ccc(OC)cc2)OC(=O)C1(C)C	-1	14	2	-10	-14	3210	24
CC(=NNC(=O)c1ccc(C)cc1C)c1ccc2c(c1)Nc1ccccc1S2	-4	-15	5	nt	nt	nt	-5.5
COc1ccccc1-c1c(C(F)(F)F)oc2c(CN(C)C)c(O)ccc2c1=O	-3	13	7	-12	-1	3846	5.7
CCN(CC)C(=O)[C@H]1CC(CC(=O)NCCCN(C)C)C(=O)N2CCc3c([nH]c4ccc(OC)cc34)[C@]12C (some centres not stated)	3	8	-7	-15	nt	3706	3.1
CCC1Sc2ccc(S(=O)(=O)N3CCN(c4ccccc4)CC3)cc2NC1=O (configuration not stated)	1	-8	-6	-30	2	6373	0.2
COc1ccc(C2CC(=O)C=C(c3ccc(C)cc3)C2)cc1 (configuration not stated)	5	16	6	nt	nt	nt	5.1
Cn1cc(S(=O)(=O)Nc2ccc(F)cc2F)c(=O)n(C)c1=O	6	-5	4	-1	-4	4937	-5.8
Cc1nc(C)c(C(=O)NCCC(c2ccccc2)c2ccccc2)o1	9	11	16	-30	1	4288	3.6
Cc1cc(Cl)c(S(=O)(=O)Nc2ccc(Cl)cn2)cc1OCC(N)=O	nt	-1	nt	-12	-14	3250	-0.9
COc1ccc(OCCN2CCN(C(=O)c3ccc(OC)cc3)CC2)cc1	-1	-2	16	-11	6	4508	0.8
Cc1cc(NC(=O)C(C)Sc2nnc(NCc3ccco3)s2)no1 (configuration not stated)	4	1	-6	4	nt	3678	-3.2
CCOC(=O)N1CCC(NC(=O)c2cc(C)c3c(C)nn(-c4ccccc4)c3n2)CC1	5	3	5	-12	21	19067*	3.3
CC1CCC(NS(=O)(=O)c2ccc(Cl)nc2)CC1 (configuration not stated)	-3	18	2	-29	-4	nt	6.6
CCc1ccc(N(CC(=O)NCc2ccco2)C(=O)CCC(=O)Nc2nccs2)cc1	3	13	1	-1	-5	3540	2.6
O=C(CSc1nnc2ccc(-c3cccnc3)nn12)Nc1ccccc1	-1	0	6	-1	3	?	1.6
Cc1nn(C)c(C)c1CN(C)C(=O)CCCC(=O)O	nt	7	nt	12	0	3624	-0.7
O=C1NC(=S)S/C1=C/c1ccc(N2CCOCC2)o1	1	-1	13	-7	21	11114	10
Cc1ccc(Cn2cc(-c3ccccc3)nn2)cc1	nt	5	nt	-38	10	3461	5.8
CC(C)c1ccc(C(=O)Nc2nnc(S(=O)(=O)N3CCCCC3)s2)cc1	nt	nt	nt	-9	9	5042	nt
O=C1CN(C(=O)COC(=O)c2cnc(Cl)c(Cl)c2)c2ccccc2N1	-1	0	-9	-9	-8	4111	2.6
CCOc1ccc(-c2noc(-c3cccnc3)n2)cc1OCC	-6	-4	-3	nt	-9	nt	5.1
CCCN1CCN(CCCNC(=O)CCn2nc(-c3ccccc3)ccc2=O)CC1	0	6	13	-4	15	3951	12
CC[C@]12C(=O)N(C)CC(C3C(=O)N(Cc4ccccc4)C(=O)C31)N2C(=O)c1ccc(Br)cc1 (some centres not stated)	5	4	5	nt	nt	nt	2.3
CCN(c1ccccc1)S(=O)(=O)c1ccc2c(c1)OCCO2	-2	10	9	-11	nt	4190	16
CSc1cc(C)nc(NC(C)=O)n1	-4	10	6	-64	-8	9047	4.3
CCOc1ccc(C(=O)NCC(=O)Nc2ccc3c(c2)OCO3)cc1OCC	-3	1	-1	-36	nt	5877	-0.2
COc1ccc(C)cc1S(=O)(=O)N(CC(=O)Nc1ccc2c(c1)OCCO2)Cc1ccccc1	8	5	5	-26	3	10187	3.3

Remaining list, next part.
SMILES	Mtb hypoxia inh growth	Sa ugtP lethal	Mtb hypoxia inh	PrP 5UTR inh	BJeLR viability	Bead autofluor	RN4220 kill
Cc1ccc(CO/N=C/C2=C(Cl)c3ccccc3CC2)cc1	nt	nt	nt	-1	-5	2420	nt
Cc1ccc(C(=O)N2CCCCCC2)cc1S(=O)(=O)Nc1ccccc1	0	12	7	-31	1	5822	4.1
O=C(CN1CCC(NC(=O)C2CC2)CC1)Nc1cccc(F)c1	-3	-3	11	-13	0	5398	3.5
O=C1CCC([N+](=O)[O-])C(C2CC=CCC2)N1 (configuration not stated)	-8	6	9	7	4	4707	-0.6
COc1ccc(C(=O)N2CCN(Cc3nc(CC4CC4)no3)CC2)cc1	5	9	2	-35	6	4851	5.5
CCC(=O)NC1(C(F)(F)F)C(=O)NC(C)=C1C#N (configuration not stated)	nt	-2	nt	7	0	3222	1.6
Cc1ccc(NC(=O)CS(=O)CC(=O)N(C2CCCC2)C(C)C(=O)NC2CCCCC2)cc1 (configuration not stated)	2	4	13	-10	5	7402	3.2
CC1CCC(n2c(=S)[nH]c3ccccc3c2=O)CC1 (configuration not stated)	10	-23	17	-2	-2	2713	-16
Cc1cc(=O)[nH]c(NN=Cc2ccc(Cl)cc2Cl)n1	0	3	10	nt	nt	nt	3.5
O=C(NCCCCc1ccccc1)c1ccccc1Br	10	13	15	nt	2	6067	14
Nc1c(Br)c(=O)[nH]c(=O)n1-c1ccc(F)cc1	-9	3	2	-10	1	3550	4.4
CC(C)Cn1nc(NS(=O)(=O)c2cccc3nonc23)c2cc3ccccc3nc21	4	2	5	-19	4	5338	19
COc1ccc(CNC(=O)COc2cc3c(c4oc(=O)cc(C)c24)CCC(C)(C)O3)cc1	nt	10	nt	-14	1	5120	0.8
Cc1ccc(CNC(=O)C2CCC(CNc3nc(=S)[nH]c4ccccc34)CC2)cc1 (configuration not stated)	9	-10	10	22	-6	4602	6.6
CCOC(=O)Cn1c(=NC(=O)C(C)C)sc2c(C)cc(C)cc21	9	13	14	-17	-4	4423	3.7
CCCCn1cnc2c(c1=O)c1nc3ccccc3nc1n2Cc1ccc2c(c1)OCO2	1	3	1	-7	-5	4046	9.5
O=C(COc1ccccc1Cl)Nc1ccc(S(=O)(=O)Nc2ccccn2)cc1	5	3	-9	-27	-15	3590	-7.0
O=c1c2ccccc2c(C=NNS(=O)(=O)c2ccccc2)c(O)n1-c1ccccn1	17	-4	7	nt	nt	nt	0.5
CCCOc1ccc(N2C(=O)CC(NCCc3ccc(S(N)(=O)=O)cc3)C2=O)cc1 (configuration not stated)	3	11	5	-16	-4	4310	3.1
COc1ccc(C(=O)NCS(=O)(=O)c2ccc(C)cc2)cc1	-6	8	-5	-20	4	?	3.3
COc1ccc(NC(=O)CN2CCCN(S(=O)(=O)c3ccc(F)cc3)CC2)cc1	-4	11	9	nt	2	8277	2.7
Nc1nc(CN2CCN(c3ccccc3F)CC2)nc(Nc2ccc3c(c2)OCCO3)n1	-5	3	-6	20	4	8060	1.0
CC1CCN(S(=O)(=O)N2CCC(C(=O)NCc3cccnc3)CC2)CC1	-4	0	0	5	6	4544	2.8
Cc1nnc(SCC(=O)NCc2ccccc2Cl)n(N)c1=O	0	-1	0	-19	-3	2358	-1.3
CCNc1ccc(C(=O)NN=Cc2c(C)nn(-c3ccccc3)c2N2CCCC2)cc1[N+](=O)[O-]	4	0	5	nt	nt	nt	1.6
COc1cc2c(cc1OC)C1=C(C#N)CN(C3CCCCC3)CN1CC2	-1	1	-7	-3	3	5923	16
COc1ccc(S(=O)(=O)Nc2nc3ccccc3s2)cc1	-2	-16	-2	-20	-9	9695	14
Cc1cccc(NC(=O)CSc2cccc3cccnc23)c1	-4	6	2	-3	0	3448	3.5
C=CCNCCOCCOc1ccc(C)cc1[N+](=O)[O-]	1	6	1	-13	-2	21806*	1.1
NC(=O)C[n+]1ccc(/C=N/O)cc1	nt	nt	nt	-14	-4	2294	nt
